Sa RN4220 lethal: growth inhibition of S. aureus RN4220, primary screen, OD600. inhibition, % (test concentration not listed). actives 0.33% (n = 330,000). 16 h. AID 1259311, 2017;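 active = z-score of -3 or lower and OD600 up to 0.18 on both plates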;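 also: plate controls were untreated cells for no effect and reference antibiotic for full effect; stock transfer was 100 nL into about 80 µL; one replicate is shown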
PrP UTR inh: inhibition of PrP 5' UTR reporter expression. inhibition, % (no concentration beside the values). actives 0.35% (n = 340,000). cell-based PrP 5' UTR mRNA reporter, plate reader;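 active = every replicate at 50% or more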;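 also: 0 = median of the neutral control wells; tested in H4 reporter cells; numbers are from one replicate; inactives centre near -14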
Autofluor counter: compound fluorescence in toxin protease inhibitor counterscreen; compound autofluorescence counterscreen, microsphere flow cytometry; hits give high values; fluorescence intensity (concentration not given with the values); actives 3.1% (n = 360,000); AID 624483;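 active = at least 3 SD above the mean of all compounds, about 16000 in these data; inconclusive = too few beads counted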;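 also: 100 nL of 1 mM stock went into each well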
ugtP null kill: growth inhibition of ugtP-null S. aureus, primary screen, RN4220 ugtP deletion, OD600; 16 h; some inactives read as strong as hits; growth inhibition, % (no concentration beside the values); actives 0.54% (n = 330,000);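 active = z-score under -3 and OD600 up to 0.15 on both plates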;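 also: plate controls were untreated wells for no effect and antibiotic for full effect; wells of about 80 µL received 100 nL stock; the first replicate is given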
Mtb hypoxia rep: PubChem AID 1159583; M. tuberculosis hypoxia-regulated fluorescent reporter, fluorescence; fluorescence inhibition, % (concentration not given with the values); actives 0.1% (n = 300,000);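 active = 35 to 45% if threefold the growth effect, above 45% if 1.5-fold the growth effect; inactive = the rest, general growth blockers included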;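 also: wells of about 50 µL received 100 nL stock; 0% = vehicle wells and 100% = reference inhibitor wells; whole bacteria with a GFP reporter of the hypoxia response; strong numbers were not always called active; many hits fall short of the cut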
BJeLR lethal: MLPCN primary cell-based screen for lethality selective to Ras in HRASV12 cells | AID 1554, 2009 | BJeLR (HRASV12) viability, CellTiter-Glo ATP luminescence, 48 h; reference of the scale not given here | actives 0.17% (n = 300,000) | inhibition, % (no concentration beside the values);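 active = replicate mean above 50%; inconclusive = above 50% but judged a plate artefact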;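 also: 50 nL library stock added to about 25 µL; numbers are from one replicate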
Mtb hypoxia rep growth: further read-out of Mtb hypoxia rep, marked with its call; growth inhibition, %; measured here: M. tuberculosis growth (absorbance);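 0% = vehicle and 100% = reference antibiotic; read after six days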
The depositor's hits bear a star.

Preview:
For CCSc1ccc2nnc(-c3cccs3)n2n1 the results were Sa RN4220 lethal 2.6, PrP UTR inh -5, Autofluor counter 3491, ugtP null kill 9, Mtb hypoxia rep 15, BJeLR lethal -6 and Mtb hypoxia rep growth 6.
For COc1ccc(NC(=O)CN(C)C(=O)C(CCSC)NC(=O)c2ccccc2)cc1 (stereo not given) the results were Sa RN4220 lethal 5.5, PrP UTR inh -18, Autofluor counter 3796, ugtP null kill 4, Mtb hypoxia rep -8, BJeLR lethal -11 and Mtb hypoxia rep growth 8.

The listing, from the first entry:
For CCSc1ccc2nnc(-c3cccs3)n2n1 the results were Sa RN4220 lethal 2.6, PrP UTR inh -5, Autofluor counter 3491, ugtP null kill 9, Mtb hypoxia rep 15, BJeLR lethal -6 and Mtb hypoxia rep growth 6.
For COc1ccc(NC(=O)CN(C)C(=O)C(CCSC)NC(=O)c2ccccc2)cc1 (stereo not given) the results were Sa RN4220 lethal 5.5, PrP UTR inh -18, Autofluor counter 3796, ugtP null kill 4, Mtb hypoxia rep -8, BJeLR lethal -11 and Mtb hypoxia rep growth 8.
Screening COc1ccc(C(C)=O)c(Oc2ccc(S(=O)(=O)N3CCOCC3)cn2)c1 returned Sa RN4220 lethal 6.7, PrP UTR inh -12, Autofluor counter 6286, ugtP null kill 13, Mtb hypoxia rep 0 and Mtb hypoxia rep growth 1.
Screening Cc1cccc(NC(=O)[C@@H]2CCCN2C(=O)OC(C)(C)C)c1 returned Sa RN4220 lethal 1.2, PrP UTR inh -16, Autofluor counter 2995, ugtP null kill 1, Mtb hypoxia rep 0, BJeLR lethal 3 and Mtb hypoxia rep growth -4.
Cc1nc2oc3ccccc3c(=O)c2cc1C(=O)O was read as Sa RN4220 lethal 4.9, PrP UTR inh -23, Autofluor counter 3537, ugtP null kill 2, Mtb hypoxia rep -1, BJeLR lethal -12 and Mtb hypoxia rep growth -1.
For COc1ccc(-c2nc(C#N)c(NC(C)C)o2)cc1 the results were Sa RN4220 lethal -1.4, PrP UTR inh -13, Autofluor counter 11519, ugtP null kill 10, Mtb hypoxia rep 3, BJeLR lethal 4 and Mtb hypoxia rep growth 6.
`CC(=O)N1CCC2(CC1)CC(=NNC(=S)Nc1ccc(C)cc1)c1cc(O)ccc1O2` gave Sa RN4220 lethal -0.5, ugtP null kill 0, Mtb hypoxia rep -7 and Mtb hypoxia rep growth -2.
Cc1cc(Br)ccc1SCC(=O)NCC(c1ccco1)N1CCCCC1 (stereo not given) was read as Sa RN4220 lethal -2.0, PrP UTR inh -33, Autofluor counter 6782, ugtP null kill -2, Mtb hypoxia rep 3, BJeLR lethal 0 and Mtb hypoxia rep growth -5.
For O=C(Nc1cccc(S(=O)(=O)N2CCCCC2)c1)c1cc2ccccc2o1 the results were Sa RN4220 lethal 23, PrP UTR inh -8, Autofluor counter 4183, ugtP null kill 0, Mtb hypoxia rep 25 and Mtb hypoxia rep growth 13.
`CCn1c(=O)n(CC)c2cc(N3CCCC3)c(NC(=O)c3ccccc3)cc21` gave Sa RN4220 lethal -1.6, PrP UTR inh -5, Autofluor counter 5512, ugtP null kill -9, Mtb hypoxia rep -8, BJeLR lethal -4 and Mtb hypoxia rep growth 11.
`CCOc1ccc(NC(=O)CCC(=O)N/N=C/c2ccc([N+](=O)[O-])s2)cc1` gave PrP UTR inh 3, Autofluor counter 10280 and BJeLR lethal -6.
Screening CC(C)(C)OC(=O)NCCCCCNC(=O)c1[nH]cnc1C(=O)Nc1ccccc1 returned Sa RN4220 lethal 4.4, PrP UTR inh -14, Autofluor counter 3589, ugtP null kill 11, Mtb hypoxia rep 10 and Mtb hypoxia rep growth 7.
COC(=O)C1=C(c2cc3ccccc3o2)C[C@@H]2CC[C@H]1N2C(=O)N1CCC(C)CC1 was read as PrP UTR inh -3, Autofluor counter 3993 and BJeLR lethal -9.
For Cc1cccc(C)c1NC(=O)C(c1ccc(Cl)cc1Cl)N1CCCCC1 (stereo not given) the results were Sa RN4220 lethal 13, PrP UTR inh -9, Autofluor counter 3318, ugtP null kill 6 and BJeLR lethal -4.
COc1cc(C(=O)NN=Cc2ccc(OC(=O)c3ccccc3)c(OC)c2)ccc1O was read as Sa RN4220 lethal 2.1, ugtP null kill 2, Mtb hypoxia rep 15 and Mtb hypoxia rep growth 5.
For CN(C(=O)C1CCN(S(=O)(=O)c2ccccc2[N+](=O)[O-])CC1)C1CCCCC1 the results were Sa RN4220 lethal 0.7, PrP UTR inh -4, Autofluor counter 3607, ugtP null kill 0, Mtb hypoxia rep -7 and Mtb hypoxia rep growth 2.
Screening Cc1ccc(-c2nc3ncccn3c2Nc2ccccc2C)o1 returned PrP UTR inh -16, Autofluor counter 2728 and BJeLR lethal -5.
COc1cc(C)c(CN2CCN(c3ccccc3)CC2)cc1C was read as Sa RN4220 lethal -2.4, PrP UTR inh -4, Autofluor counter 17583*, ugtP null kill 30, Mtb hypoxia rep -4, BJeLR lethal -7 and Mtb hypoxia rep growth -9.
CCCCCCn1c(SCC(=O)Nc2cc(C)on2)nc2ccccc2c1=O was read as Sa RN4220 lethal 1.1, PrP UTR inh -2, Autofluor counter 16827*, ugtP null kill -8, Mtb hypoxia rep -2, BJeLR lethal -4 and Mtb hypoxia rep growth 7.
`Cc1cccc(NC(=O)CSc2nc3c([nH]c4ccccc43)c(=O)n2C)c1` gave Sa RN4220 lethal 7.2, PrP UTR inh -8, Autofluor counter 5543, ugtP null kill 12, Mtb hypoxia rep 9, BJeLR lethal -1 and Mtb hypoxia rep growth 3.
CCOc1cc(NS(=O)(=O)c2ccc(OC)cc2)c(OCC)cc1NC(=O)c1ccco1 was read as Sa RN4220 lethal -6.1, PrP UTR inh -2, Autofluor counter 22748*, ugtP null kill -10, Mtb hypoxia rep -18, BJeLR lethal -10 and Mtb hypoxia rep growth 5.
`COc1cc([N+](=O)[O-])ccc1NC(=O)C[n+]1cccc(C(C)=O)c1` gave Sa RN4220 lethal -2.2, PrP UTR inh -15, Autofluor counter 4871, ugtP null kill -2, Mtb hypoxia rep -5, BJeLR lethal -2 and Mtb hypoxia rep growth -3.
CCOc1cccc(-c2nnc3n2N=C(c2cc(OC)ccc2OC)CS3)c1 was read as Sa RN4220 lethal -4.9, PrP UTR inh -5, Autofluor counter 4057, ugtP null kill -14, Mtb hypoxia rep -5, BJeLR lethal 10 and Mtb hypoxia rep growth -5.
`O=C(Nc1ccc(N2CCOCC2)c([N+](=O)[O-])c1)c1ccco1` gave Sa RN4220 lethal 3.8, PrP UTR inh -34, Autofluor counter 3241, ugtP null kill -2, Mtb hypoxia rep 6, BJeLR lethal 2 and Mtb hypoxia rep growth 6.
For COc1ccc(CC2S/C(=N/N=Cc3ccc(O)cc3)NC2=O)cc1 (stereo not given) the results were Sa RN4220 lethal 6.8, ugtP null kill 8, Mtb hypoxia rep 6 and Mtb hypoxia rep growth -12.
COc1cccc(-n2cc(-c3ccc(F)cc3)[nH]c2=S)c1 was read as Sa RN4220 lethal 4.7, PrP UTR inh -49, Autofluor counter 3821, ugtP null kill 26, Mtb hypoxia rep -4, BJeLR lethal -7 and Mtb hypoxia rep growth 2.
For Cc1cccc(NC(=O)c2cc(-c3cc(C)ccc3O)n[nH]2)c1 the results were Sa RN4220 lethal -4.9, PrP UTR inh -59, Autofluor counter 3054, ugtP null kill 16, Mtb hypoxia rep 5, BJeLR lethal -4 and Mtb hypoxia rep growth 7.
`CCC1CCCCN1CCCNC(=O)Cn1ncc2c([nH]c3ccc(C)cc32)c1=O` (stereo not given) gave Sa RN4220 lethal 4.1, PrP UTR inh -13, Autofluor counter 6036, ugtP null kill 6, Mtb hypoxia rep 3, BJeLR lethal 14 and Mtb hypoxia rep growth 1.
`CCOC(=O)C1CCCN(c2c(NCCN3CCCCC3C)c(=O)c2=O)C1` (stereo not given) gave Sa RN4220 lethal 4.0, PrP UTR inh -19, Autofluor counter 5478, ugtP null kill -1, Mtb hypoxia rep 5, BJeLR lethal -2 and Mtb hypoxia rep growth 4.
`CCc1ccc(-c2cc(C(=O)NCCCn3ccnc3)c3ccccc3n2)s1` gave Sa RN4220 lethal 5.4, ugtP null kill 12, Mtb hypoxia rep -1, BJeLR lethal 8 and Mtb hypoxia rep growth 9.

3 structures from above, sorted by molecular weight, falling.
CCOc1cccc(-c2nnc3n2N=C(c2cc(OC)ccc2OC)CS3)c1 was read as Sa RN4220 lethal -4.9, PrP UTR inh -5, Autofluor counter 4057, ugtP null kill -14, Mtb hypoxia rep -5, BJeLR lethal 10 and Mtb hypoxia rep growth -5.
`COc1cc([N+](=O)[O-])ccc1NC(=O)C[n+]1cccc(C(C)=O)c1` gave Sa RN4220 lethal -2.2, PrP UTR inh -15, Autofluor counter 4871, ugtP null kill -2, Mtb hypoxia rep -5, BJeLR lethal -2 and Mtb hypoxia rep growth -3.
`O=C(Nc1ccc(N2CCOCC2)c([N+](=O)[O-])c1)c1ccco1` gave Sa RN4220 lethal 3.8, PrP UTR inh -34, Autofluor counter 3241, ugtP null kill -2, Mtb hypoxia rep 6, BJeLR lethal 2 and Mtb hypoxia rep growth 6.

Going on with the list:
CCCCOc1ccc(C(=O)N/C(=C/C=C/c2ccccc2)C(=O)NC)cc1 was read as Sa RN4220 lethal 2.9, PrP UTR inh -12, Autofluor counter 1997, ugtP null kill 8, Mtb hypoxia rep 6, BJeLR lethal -4 and Mtb hypoxia rep growth -8.
For O=C(c1nc(-c2ccccc2)n(-c2ccccc2)n1)N1CCN(S(=O)(=O)c2ccccc2)CC1 the results were Sa RN4220 lethal 1.1, PrP UTR inh 6, Autofluor counter 6405, ugtP null kill 22, Mtb hypoxia rep 16, BJeLR lethal -1 and Mtb hypoxia rep growth 8.
For O=C(O)C1CCC(NSc2ccccc2[N+](=O)[O-])CC1 (stereo not given) the results were Sa RN4220 lethal 65, PrP UTR inh -7, Autofluor counter 3877, ugtP null kill 76, Mtb hypoxia rep -1, BJeLR lethal 10 and Mtb hypoxia rep growth -5.
`CC(=NNC(=O)c1cccs1)c1ccc2c(c1)OCO2` gave Sa RN4220 lethal 5.4, ugtP null kill -1, Mtb hypoxia rep 9 and Mtb hypoxia rep growth -1.
Cc1csc(=O)n1CC(=O)OC(C)C(=O)Nc1ccc(F)c(F)c1F (stereo not given) was read as Sa RN4220 lethal 3.9, PrP UTR inh -17, Autofluor counter inconclusive, ugtP null kill 0, Mtb hypoxia rep 1, BJeLR lethal 2 and Mtb hypoxia rep growth -2.
`COc1ccc(CC(=O)OC2CCCN(C)C2)cc1` (stereo not given) gave Sa RN4220 lethal 7.2, PrP UTR inh -15, Autofluor counter 3736, ugtP null kill 3, Mtb hypoxia rep 12, BJeLR lethal 1 and Mtb hypoxia rep growth 3.
For CCCCn1c(-c2cccnc2)nc2cc3[nH]c(=O)c(C(C)C)nc3cc21 the results were Sa RN4220 lethal 4.1, PrP UTR inh 0, Autofluor counter 4028, ugtP null kill 0, Mtb hypoxia rep 17, BJeLR lethal 8 and Mtb hypoxia rep growth 30.
Cc1[nH]c2ccccc2c1C(c1ccccn1)N1CCC(C(N)=O)CC1 (stereo not given) was read as Sa RN4220 lethal -0.9, PrP UTR inh 7, Autofluor counter 3360, ugtP null kill -4, Mtb hypoxia rep -1, BJeLR lethal 1 and Mtb hypoxia rep growth 5.
For COc1ccc(C(=O)/C=C2\Sc3ccccc3N2C)cc1 the results were Sa RN4220 lethal 7.4, PrP UTR inh -69, Autofluor counter 3444, ugtP null kill 7, Mtb hypoxia rep 4, BJeLR lethal 11 and Mtb hypoxia rep growth 0.
For CCCCCCNC(=O)c1cn(CC)c2cc(N3CCN(C)CC3)c(F)cc2c1=O the results were Sa RN4220 lethal 19, PrP UTR inh -66, Autofluor counter 3333, ugtP null kill 65, Mtb hypoxia rep 3, BJeLR lethal 4 and Mtb hypoxia rep growth 13.
Screening CC(CC(=O)Nc1cccc(C(F)(F)F)c1)=NNC(=O)C1CCCCC1 returned Sa RN4220 lethal 6.5, ugtP null kill 4, Mtb hypoxia rep 5 and Mtb hypoxia rep growth 6.
For COc1ccc(OC)c(NS(=O)(=O)c2cc3c4c(c2)CCN4C(=O)CC3)c1 the results were Sa RN4220 lethal 4.2, PrP UTR inh -28, Autofluor counter 6186, ugtP null kill -2, Mtb hypoxia rep 3, BJeLR lethal 2 and Mtb hypoxia rep growth -5.
C=CCc1c(C)nc(C)nc1N/N=C/c1ccc(F)cc1 was read as PrP UTR inh -7, Autofluor counter 4553 and BJeLR lethal 5.

Screening data deposited in PubChem by several laboratories.
